BasE inh: BasE siderophore enzyme inhibitors, primary screen, biochemical, Acinetobacter baumannii ATCC 17978, fluorescence polarization; purified BasE, fluorescence polarization binding displacement; inhibition, % (no concentration beside the values); 84,000 tested, 0.1% active; AID 485350, 2010;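 active means both replicates above 25% with normal brightness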;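 further: 0% = negative plate control signal and 100% = positive plate control signal; stock transfer was 100 nL into about 30 µL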
KSHV LANA nucl: inhibitors of KSHV LANA-nucleosome binding, primary screen, biochemical, fluorescence polarization, FITC-LANA1-23, chicken nucleosomes | FITC-LANA1-23 / chicken nucleosome fluorescence polarization; active compounds read low | z-score (concentration not given with the values) | 51,000 tested, 0.3% active | AID 720717, 2013;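 active means both repeat wells score below -2 in polarization z-score versus plate sample wells, excluding overly bright wells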;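 further: 100 nL library stock added to about 30 µL; numbers are from one replicate; some results filed as inactive read as strong as hits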
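Assay system: FITC-LANA peptide and chicken nucleosomes; input: 240 nM purified chicken nucleosomes (480 nM peptide binding sites), final; also added: 50 nM FITC-LANA1-23 probe; medium: TEN-BT buffer, pH 7.5; doses: pin-transferred compound, 100 nL; times: 10–45 min, room temperature; technique: fluorescence polarization; replication: duplicates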
An asterisk follows results filed as active; . = not tested or not shown; & = joins results of further samples. This is a subset; the hit share may differ from the screen's.

C=CCN1C(=O)NC(=O)/C(=C/C=C/c2ccccc2)C1=O
  BasE inh: -36; KSHV LANA nucl: -0.77
CCOC(=O)C1C2NC(=S)NC1(C)Oc1ccccc12 (configuration not stated)
  BasE inh: -0.8; KSHV LANA nucl: 0.86
Cn1c(=O)c(C2(O)C(=O)NC(=O)NC2=O)c(O)c2ccccc21
  BasE inh: -0.8; KSHV LANA nucl: 0.45
c1ccc2c(c1)OCC(C1=NCCN1)O2 (configuration not stated)
  BasE inh: 0.7; KSHV LANA nucl: -0.14&-0.76
NCCc1ccc(O)cc1
  BasE inh: 1.2; KSHV LANA nucl: 1.3
N#Cc1nn(-c2c(Cl)cc(C(F)(F)F)cc2Cl)c(N)c1S(=O)C(F)(F)F (configuration not stated)
  BasE inh: 1.0&-1.9; KSHV LANA nucl: 0.7&-0.16&-0.003
O=C(NCNC(=O)NC1C(=O)NC(=O)N1CO)NC1C(=O)NC(=O)N1CO (configuration not stated)
  BasE inh: -2.7; KSHV LANA nucl: -0.36
Cc1c(/C(CC(C)C)=N/O)c2ccccc2n1C
  BasE inh: -0.2; KSHV LANA nucl: -0.49
O=C(Cn1c(-c2cccs2)cc2ccccc21)N1CCC2(CC1)OCCO2
  BasE inh: -0.7; KSHV LANA nucl: -0.29
COc1ccc(OC)c(N2C(=O)NC(=O)C(CCc3ccccn3)(CCc3ccccn3)C2=O)c1
  BasE inh: -2.1; KSHV LANA nucl: 0.016
O[C@H]1[C@H]2[C@H](O)CCCN2C[C@H]1O
  BasE inh: 2.2; KSHV LANA nucl: 0.16
CC(C)n1cc(C(=O)N(C2CC2)C(C(=O)NC2CCCC2)c2ccccc2)cn1 (configuration not stated)
  BasE inh: 1.6; KSHV LANA nucl: -0.71
COc1cc(CN2CC=C(c3ccc(F)cc3)CC2)cc(OC)c1
  BasE inh: -1.7; KSHV LANA nucl: -0.64
CCOc1cc(CN2CCN(C(=O)COc3ccc(C)cc3)CC2)ccc1OC
  BasE inh: 0.4; KSHV LANA nucl: .
O=C1CSC2N1CCNC21CCCCC1 (configuration not stated)
  BasE inh: 0.1; KSHV LANA nucl: 0.25
O=C(c1cc2ccccc2o1)N1CCN(c2ccccc2)CC1
  BasE inh: -1.0; KSHV LANA nucl: 0.098
O=c1cccc2n1CC1CNC[C@@H]2C1
  BasE inh: -1.6; KSHV LANA nucl: 0.41
CC(C)(C)C1CCC(N2CCOCC2)CC1 (configuration not stated)
  BasE inh: 0.5; KSHV LANA nucl: -1
CC1(C)C(C=C(Cl)Cl)C1C(=O)OC(C#N)c1cccc(Oc2ccccc2)c1 (configuration not stated)
  BasE inh: -0.4; KSHV LANA nucl: -1.4
CC(=O)O[C@H]1CC[C@@]2(C)C(=CCC3C2CC[C@]2(C)C(=O)CCC32)C1 (some centres not stated)
  BasE inh: 0.3; KSHV LANA nucl: -0.3
c1ccc(COc2cnc(N3CCNCC3)nc2)cc1
  BasE inh: .; KSHV LANA nucl: 0.42
N#CC(C#N)=NNc1ccc(OC(F)(F)F)cc1
  BasE inh: 0.5; KSHV LANA nucl: -0.7
Fc1ccccc1CN1CCN(Cc2ccccc2F)CC1
  BasE inh: 2.5; KSHV LANA nucl: -0.46
CCC(C)C(=O)O[C@H]1[C@H](O)C2C(CN3CC(C)CCC3[C@@]2(C)O)C2C[C@]34O[C@]5(O)C(OC(=O)C(C)(O)CC)CC[C@@]3(C)C5C(OC(C)=O)[C@@H](OC(C)=O)C4[C@@]21O (some centres not stated)
  BasE inh: -3.8; KSHV LANA nucl: 1.9
N#Cc1c(/N=C/c2ccc(O)cc2O)sc2c1C1CCN2CC1
  BasE inh: 17; KSHV LANA nucl: -3.9*

3 compounds already listed, ordered by heavy-atom count, smallest number first:
c1ccc2c(c1)OCC(C1=NCCN1)O2 (configuration not stated)
  BasE inh: 0.7; KSHV LANA nucl: -0.14&-0.76
Fc1ccccc1CN1CCN(Cc2ccccc2F)CC1
  BasE inh: 2.5; KSHV LANA nucl: -0.46
O=C(c1cc2ccccc2o1)N1CCN(c2ccccc2)CC1
  BasE inh: -1.0; KSHV LANA nucl: 0.098

Reformatted: entries from further up.
Order of values: BasE inh	KSHV LANA nucl
O=C(NCNC(=O)NC1C(=O)NC(=O)N1CO)NC1C(=O)NC(=O)N1CO (configuration not stated)
    -2.7	-0.36
O[C@H]1[C@H]2[C@H](O)CCCN2C[C@H]1O
    2.2	0.16
CC1(C)C(C=C(Cl)Cl)C1C(=O)OC(C#N)c1cccc(Oc2ccccc2)c1 (configuration not stated)
    -0.4	-1.4
O=C(c1cc2ccccc2o1)N1CCN(c2ccccc2)CC1
    -1.0	0.098
CC(C)(C)C1CCC(N2CCOCC2)CC1 (configuration not stated)
    0.5	-1
c1ccc(COc2cnc(N3CCNCC3)nc2)cc1
    .	0.42
O=c1cccc2n1CC1CNC[C@@H]2C1
    -1.6	0.41

Later entries:
NC(=O)OCCCc1ccccc1
  BasE inh: .; KSHV LANA nucl: -0.091
CCOC(=O)C1=C(C)N(C)C2(C)CC1c1ccccc1O2 (configuration not stated)
  BasE inh: 3.1; KSHV LANA nucl: .
Fc1c(F)c2c(c(F)c1Cl)Oc1ccccc1O2
  BasE inh: 0.2; KSHV LANA nucl: 0.56
CCOC(=O)c1c(N(C(C)=O)C(C)=O)n(CCCOC)c2nc3ccccc3nc12
  BasE inh: 4.2; KSHV LANA nucl: .
COC(=O)C1=C(N)Oc2cc(C)oc(=O)c2C12C(=O)Nc1ccccc12 (configuration not stated)
  BasE inh: 1.6; KSHV LANA nucl: 0.22
N#CCc1ccsc1
  BasE inh: -0.5; KSHV LANA nucl: .
CN1CCN(c2cc(Cl)nc(N)n2)CC1
  BasE inh: .; KSHV LANA nucl: -1
c1cncc(C2Nc3ccccc3-n3cccc32)c1 (configuration not stated)
  BasE inh: 1.9; KSHV LANA nucl: .
CCOC(=O)C1CCN(/C=C2/C(=O)NC(=O)N(Cc3ccco3)C2=O)CC1
  BasE inh: -0.8; KSHV LANA nucl: -0.54
CN(C)C(=S)SSC(=S)N(C)C
  BasE inh: -3.8; KSHV LANA nucl: 0.26&1.2
O=C1NC(=O)N(c2ccccc2)C(=O)/C1=C/c1ccccc1
  BasE inh: 6.0; KSHV LANA nucl: -0.26
Cn1cc(C(=O)OCC(=O)Nc2ccc(Cl)cn2)c2ccccc21
  BasE inh: -0.6; KSHV LANA nucl: .
Cc1ccc(S(=O)(=O)NC(=O)N2CC3CC(C2)c2cccc(=O)n2C3)cc1 (configuration not stated)
  BasE inh: -0.2; KSHV LANA nucl: -0.95
CN[C@@H]1[C@@H](O)[C@@H](O[C@@H]2[C@@H](O)[C@H](O[C@H]3O[C@H]([C@@H](C)NC)CC[C@H]3N)[C@@H](N)C[C@H]2N)OC[C@]1(C)O (tested in a mixture with another compound)
  BasE inh: -1.1; KSHV LANA nucl: -0.74
CC12CN3CCN(CC(C3)/C1=N\O)C2
  BasE inh: 3.3; KSHV LANA nucl: -0.021
CC[C@@H]1C=CC=CC[C@H](C)[C@@H](O)[C@@H](C)C(=O)[C@H](C)[C@@H](O)[C@H](C)C(=O)[C@H](C)[C@@H](O)[C@H](C)C=CC(=O)O[C@H]2[C@@H](C)[C@@H](CC1)O[C@@]1(CC[C@@H](C)[C@@H](C[C@H](C)O)O1)[C@@H]2C
  BasE inh: .; KSHV LANA nucl: -0.056
COc1cccc(N=Cc2c(O)n(Cc3ccco3)c(=O)[nH]c2=O)c1
  BasE inh: -0.1; KSHV LANA nucl: 0.86
Cn1cc(C(=O)O)c2ccccc21
  BasE inh: .; KSHV LANA nucl: -0.12
CCOc1ccc(C(=O)OC2CC3CCC(C2)N3C)cc1 (configuration not stated)
  BasE inh: -1.0; KSHV LANA nucl: .
NCCCN1CCN(c2ccccc2)CC1
  BasE inh: 2.4; KSHV LANA nucl: 0.43
CC(=O)Oc1ccc(Cl)c2cccnc12
  BasE inh: 30*; KSHV LANA nucl: 0.18
Cc1nn(C)c2c1c(-c1ccccc1)cc(=O)n2C(C)C(=O)N1CCC2(CC1)OCCO2 (configuration not stated)
  BasE inh: 1.7; KSHV LANA nucl: 0.52
CCCc1cc(OC(=O)N(C)C)nc(-c2cccc(C)c2)n1
  BasE inh: .; KSHV LANA nucl: 0.003
O=C1OC(c2ccc(Cl)cc2)=N/C1=C\N1CC2CC(C1)c1cccc(=O)n1C2 (configuration not stated)
  BasE inh: 0.7; KSHV LANA nucl: 1.5
CC1(c2ccc3c(c2)OCCO3)NC(=O)N(CN2CC=C(c3ccccc3)CC2)C1=O (configuration not stated)
  BasE inh: 1.7; KSHV LANA nucl: .

Whole records from above:
O=C1NC(=O)N(c2ccccc2)C(=O)/C1=C/c1ccccc1 across the screens: BasE inh: 6.0; KSHV LANA nucl: -0.26
N#Cc1nn(-c2c(Cl)cc(C(F)(F)F)cc2Cl)c(N)c1S(=O)C(F)(F)F (configuration not stated) across the screens: BasE inh: 1.0&-1.9; KSHV LANA nucl: 0.7&-0.16&-0.003

Following part.
Cc1ccc2c(c1)C1CN(C)CCC1N2C(=S)Nc1cccnc1 (configuration not stated)
  BasE inh: 3.3; KSHV LANA nucl: .
CC(C)(C)N1C(=O)NC(=O)/C(=C/c2ccccc2Cl)C1=O
  BasE inh: 1.4; KSHV LANA nucl: -0.66
CCn1c(O)c(C=Nc2ccc(N3CCOCC3)c(Br)c2)c(=O)n(CC)c1=S
  BasE inh: -4.5; KSHV LANA nucl: 0.27
CC(C)c1ccc(O)cc1
  BasE inh: 9.6; KSHV LANA nucl: .
Cc1nc2cc(-c3ccccc3)nn2c(C)c1CCC(=O)N1CCC2(CC1)OCCO2
  BasE inh: -1.8; KSHV LANA nucl: 0.36
O=C1CNC(c2ccccc2)c2cc(Br)ccc2N1 (configuration not stated)
  BasE inh: -1.1; KSHV LANA nucl: -0.54
CCOc1ccccc1C=C(C#N)C#N
  BasE inh: 1.8; KSHV LANA nucl: 1.7
CCC1(c2cccc(O)c2)CCCCN(C)C1 (configuration not stated)
  BasE inh: -1.4; KSHV LANA nucl: -0.16
CC1(C)CC(Nc2nc(Cl)c(C#N)c(Cl)c2Cl)CC(C)(C)N1
  BasE inh: -5.1; KSHV LANA nucl: -1.5
CN(C)/N=C/c1cn(C)c2ccccc12
  BasE inh: 1.6; KSHV LANA nucl: .
COc1ccc(NC2=NP(N(C)C)(N(C)C)=NC(c3ccccc3)=N2)cc1
  BasE inh: 1.1; KSHV LANA nucl: .
COCCNc1cnn(C23CC4CC(CC(C4)C2C(=O)O)C3)c(=O)c1Cl (configuration not stated)
  BasE inh: 3.2; KSHV LANA nucl: -0.42
CCN=C1N=C(c2ccccc2)N=P(NCC)(NCC)N1
  BasE inh: -0.4; KSHV LANA nucl: 0.33
NC(=O)CS(=O)C(c1ccccc1)c1ccccc1 (configuration not stated)
  BasE inh: -1.4; KSHV LANA nucl: 0.045&-0.3&0.56
CCCS(=O)(=O)N1CCCC(C(=O)N2CCC3(CC2)OCCO3)C1 (configuration not stated)
  BasE inh: 2.1; KSHV LANA nucl: 0.1
FC(F)(F)c1ccccc1NC1=NCCCS1
  BasE inh: -0.2; KSHV LANA nucl: .
CCCCCCCCCCCCCCCC[N+](C)(C)C
  BasE inh: -4.5; KSHV LANA nucl: 0.21&-0.2
CCc1nn(C(C)C(=O)N2CCC3(CC2)OCCO3)c(=O)c2cc3occc3n12 (configuration not stated)
  BasE inh: 0.7; KSHV LANA nucl: -1.7

A few values from the results shown.
CCn1c(O)c(C=Nc2ccc(N3CCOCC3)c(Br)c2)c(=O)n(CC)c1=S in KSHV LANA nucl: 0.27
CCCS(=O)(=O)N1CCCC(C(=O)N2CCC3(CC2)OCCO3)C1 (configuration not stated) in BasE inh: 2.1
O=C1CNC(c2ccccc2)c2cc(Br)ccc2N1 (configuration not stated) in KSHV LANA nucl: -0.54
CCC1(c2cccc(O)c2)CCCCN(C)C1 (configuration not stated) in BasE inh: -1.4
COc1ccc(NC2=NP(N(C)C)(N(C)C)=NC(c3ccccc3)=N2)cc1 in BasE inh: 1.1
NC(=O)CS(=O)C(c1ccccc1)c1ccccc1 (configuration not stated) in BasE inh: -1.4
CC(C)c1ccc(O)cc1 in BasE inh: 9.6
